# eIF4H FP inh: inhibitors of RNA binding by human eIF4H | inhibition, % at 35 µM | AID 2012 | Q15056 | eIF4H fluorescence polarization binding assay | actives 0.94% (n = 290,000);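 active means 50% or more with normal probe brightness, or confirmed in later tests; inconclusive means above 50% with abnormal brightness, or retests that disagree; inactive means below 50% or failed in later tests; about a fifth of its hits are not listed in these tables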;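 further: calls also rest on retests at 20 µM and on dose response follow-up; 0% = protein and probe with vehicle and 100% = probe without protein; strong numbers were not always called active; many hits fall short of the cut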
# UUG fidelity: alters start codon recognition fidelity in yeast. AID 602363. actives 0.13% (n = 350,000). activity score, % at 18.7 µM. S. cerevisiae UUG-firefly luciferase reporter, luminescence/redox ratio;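 active means replicate mean at a twofold rise or more, about +100% in these data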;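 further: firefly luciferase made from a UUG start codon reports start codon fidelity; reporter light over untreated wells divided by growth signal over untreated wells; some hits fall short of that in this replicate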
# MT1-MMP act inh: MT1-MMP (human) activation inhibition. AID 651647. GFP/RFP ratio change, % at 20 µM. actives 0.061% (n = 360,000). P50281. HT1080 RFP-PRO-GFP cells, GFP/RFP ratio fluorescence, overnight; percent of plate control window, DMSO zero;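 active means GFP/RFP ratio change of at least 30% with cell ATP level not reduced by more than half and red fluorescence within 50% of control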; further: strong numbers were not always called active
#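 Compound: 20 µM single dose, 1% DMSO / System: HT1080 RFP-PRO-GFP cells / Controls: DMSO and RFP-L50D-GFP cell wells / Read-out basis: GFP/RFP fluorescence ratio / Schedule: overnight compound exposure at 37 °C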
# Rce1 inh: yeast Ras-converting enzyme inhibition. Q03530. yeast membranes, quenched prenylated peptide cleavage fluorescence. calls only. actives 0.27% (n = 290,000). AID 2563;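 active means fall in fluorescence gain of 50% or more versus controls, with final raw signal at or below 3038400; inconclusive means same 50% fall but final raw signal above 3038400; inactive means fall in fluorescence gain under 50%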;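 further: plate controls were neutral control wells for no effect and wells lacking membranes for full effect; tested at 10 µM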
# Target sequence (Q03530 whole entry, looked up): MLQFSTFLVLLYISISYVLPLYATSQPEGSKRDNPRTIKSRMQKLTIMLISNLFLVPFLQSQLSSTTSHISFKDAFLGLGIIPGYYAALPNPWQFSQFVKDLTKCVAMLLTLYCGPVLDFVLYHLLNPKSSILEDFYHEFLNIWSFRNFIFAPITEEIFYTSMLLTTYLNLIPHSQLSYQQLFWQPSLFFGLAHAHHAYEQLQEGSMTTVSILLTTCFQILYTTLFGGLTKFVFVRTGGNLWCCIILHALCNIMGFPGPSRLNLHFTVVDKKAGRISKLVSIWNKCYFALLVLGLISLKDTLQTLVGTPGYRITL
# CSC inhib: cancer stem cell inhibition; inhibition, % at 7.5 µM; cancer stem cell-like cells viability, luminescence; AID 2717; actives 1.1% (n = 300,000);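 active means mean at 75% or more and at least half the replicates too; inconclusive means mean and replicates disagree; tested in HMLE shEcad cells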;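 further: 0% = median of negative and 100% = median of positive control wells; the first replicate is given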
# HIV Env fusion: inhibitors of HIV Env-mediated cell fusion | HeLa-JRFL Env/CEM21 cell fusion, luciferase | inhibition, % at 12.3 µM | actives 1.1% (n = 360,000);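 active means mean replicate inhibition score of at least 50 and every replicate individually at or above 50; inconclusive means only one of the two criteria met; inactive means mean below 50 and not all replicates reaching 50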;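 further: 0% = plate neutral controls and 100% = maraviroc near 300 nM; one replicate is shown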
# PABP polyA inh: PABP-poly(A) binding inhibition. PABP-poly(A) RNA binding, fluorescence polarization. actives 1% (n = 290,000). AID 2014. inhibition, % at 35 µM. P11940;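 active means 50% or more with normal probe brightness, or confirmed in later tests; inconclusive means above 50% with abnormal brightness, or retests that disagree; inactive means below 50% or failed in later tests; about a fifth of its hits are not listed in these tables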;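 further: calls also rest on retests at 20 µM and on dose response follow-up; controls were probe without protein and protein plus probe with vehicle; some compounds called inactive have numbers as strong as hits; many hits fall short of the cut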
# PABP polyA inh retest: further read-out of PABP polyA inh, marked with its call; inhibition, %; compound at 20 µM; confirmation repeats;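 mean of two retest wells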
# MT1-MMP act inh RFP: also measured in MT1-MMP act inh; calls as there; RFP signal change, %; measured here: RFP expression control read;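 0 = vehicle wells; hits needed this value within 50% of zero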
# Active calls of the source: *; i = inactive; u = inconclusive; x = no result given; ! = repeats disagree. This is a subset (hit frequency here may not be typical).
SMILES,eIF4H FP inh,UUG fidelity,MT1-MMP act inh,MT1-MMP act inh RFP,Rce1 inh,CSC inhib,HIV Env fusion,PABP polyA inh,others
N#Cc1ccc(C(c2nnnn2C2CCCC2)N2CCC(Cc3ccccc3)CC2)cc1 (configuration not stated),-5,-19,-13,-16,i,5,-49,-2,
COc1cccc(CNCCNC(=O)c2ccco2)c1OC,1,-1,-2,-2,i,-1,4,14,
CC1CN(c2ccc(Cl)cc2)c2nc3c(c(=O)[nH]c(=O)n3C)n2C1 (configuration not stated),-1,-26,7,-6,i,x,2,4,
COc1ccc([C@H]2C(C(=O)O)=C[C@@H](CC3CCCC3)N2S(=O)(=O)c2ccc(C)cc2)cc1OC,x,-20,4,4,x,x,-7,x,
COc1ccc(CSC2=CS(=O)(=O)c3ccccc3N2)cc1,-4,x,1,0,i,-3,-5,6,
CCOC(=O)N1CCC(Nc2c(NCCN3CCN(Cc4ccccc4)CC3)c(=O)c2=O)CC1,-18,x,0,-3,i,-2,x,-5,
CC(=O)c1ccc(NC(=O)CN(C)CC(=O)Nc2cccc(F)c2)cc1,-9,x,1,0,i,-20,19,-6,
COc1cccc(NC(=O)c2ccnc(N3CCC(C(=O)NCc4cc(OC)ccc4OC)CC3)c2)c1,-6,-10,7,0,i,10,x,-8,
Cc1ccc(C)c2[nH]c(=O)c(CN(CC3CCCO3)S(=O)(=O)c3ccc4c(c3)OCCO4)cc12 (configuration not stated),9,4,4,4,i,9,16,2,
CCOC(=O)c1ccc(NC(=O)CSCC(=O)OCC(=O)c2ccccc2)cc1,6,2,0,5,i,6,-4,-6,
N#CCCCSc1nnc(CSc2nc3ccccc3s2)n1-c1ccccc1,-8,-4,-3,-14,i,-7,x,-12,
CC(OC(=O)CNC(=O)c1ccc(Cl)cc1)C(=O)NC1CCCCC1C (configuration not stated),x,x,4,6,i,-8,-7,x,
CC1(CCc2ccccc2)NC(=O)N(CC(=O)N2CCCCCC2)C1=O (configuration not stated),x,-17,1,1,i,x,-4,x,
COCCCNC(=O)C1C2C=CC3(CN(Cc4ccc(C)cc4)C(=O)C13)O2 (configuration not stated),-7,4,-2,1,i,-11,x,7,
Cc1occc1C(=O)N/N=C/c1ccc(-c2ccccc2)cc1,5,-21,6,-1,x,-5,-455,5,
Cc1ccc(S(=O)(=O)N2CCC(C(=O)NC3CCCCC3C)CC2)cc1 (configuration not stated),-6,13,0,-2,i,0,4,-14,
CCn1c(CSc2ncccn2)nnc1SCC(=O)N1CCc2ccccc21,-8,x,-6,-2,i,3,4,-10,
Clc1nnc(N/N=C/c2ccccc2)c2ccccc12,-12,-11,0,0,i,1,-243,2,
CCCc1cc(C(=O)OC)c2ccccc2n1,15,x,0,3,i,4,x,-1,
COC(=O)c1csc(C2OC(CO)C(O)C2O)n1 (configuration not stated),x,-19,3,7,x,x,-3,x,
Cc1ccc(-c2cc(NC(=O)c3ccccc3[N+](=O)[O-])n[nH]2)cc1,-10,-31,0,-2,i,19,2,1,
O=C(O)CCNC(=O)c1ccc(NC(=O)Cc2ccc(Cl)cc2)cc1,2,x,3,1,i,x,-12,18,
O=C(NCCN1CCOCC1)c1ccc(Cl)c(S(=O)(=O)N2CCCCC2)c1,2,15,6,-2,i,-13,-11,-8,
Cn1c(Cn2c(=O)sc3ccccc32)nnc1SCc1ccccc1,2,5,0,0,i,x,-5,-4,
COc1ccc(NC(=O)c2ccc(NCCN3C(=O)CCC3=O)c([N+](=O)[O-])c2)cc1,u,x,3,3,x,6,14,3.6*,PABP polyA inh retest=99*
Cc1ccsc1-c1nc(CN(C)C(C2CC2)C2CC2)c(C)o1,-6,-12,-4,-2,i,2,8,-2,
COc1cc(-c2nnc(Cn3cc(C(F)(F)F)ccc3=O)o2)cc(OC)c1OC,-5,-13,3,-8,i,x,-12,6,
O=c1[nH]ncc(N2CCN(Cc3ccccc3)CC2)c1Cl,2,x,-3,-1,i,4,2,0,
Cc1ccc(Cl)cc1NC(=O)c1ccc(CSc2nnnn2C)cc1,-11,-3,-1,0,i,2,x,0,
Cc1cccc(C(=O)N[C@H](C(=O)Nc2cccc(S(=O)(=O)N3CCCC3)c2)C(C)C)c1,-10,x,-9,-14,i,-16,-5,2,
O=C(O)C1C2C=CC3(CN(CC(O)COc4ccccc4)C(=O)C13)O2 (configuration not stated),-2,19,1,6,i,-9,x,8,
CN(C(=O)c1cccnc1)c1nnc(-c2cccnc2)s1,-9,-22,3,3,i,-4,6,-2,
O=C(Nc1ccc2c(c1)CCC2)c1cc(S(=O)(=O)Nc2ccc(F)cc2)c(Cl)cc1Cl,2,-23,-2,-20,i,109*,x,-1,
COc1ccc(CN2C(=O)c3ccccc3C2C(=O)NC2CCC(C)CC2)c(OC)c1 (configuration not stated),-6,-4,1,1,i,-6,3,-5,
Cn1c(SCC(=O)N2CCN(c3ccccc3)CC2)nnc1-c1cc2ccccc2o1,-14,-17,-6,-7,i,-21,41,0,
O=C(Cc1ccc(-n2c(=O)[nH]c3ccccc3c2=O)cc1)N1CCN(c2ccccc2)CC1,-4,12,1,-1,i,-10,21,6,
CCN1CCN(CCCNC(=O)c2ccc3c(c2)N(Cc2ccccc2)CCS3)CC1,-3,-1,1,2,i,8,16,-5,
O=c1cc(N2CCCC2)c(-c2ccccc2)n[nH]1,11,x,4,2,i,-7,11,-12,
CNc1ccc(Br)cc1C(O)c1ccccc1 (configuration not stated),10,x,1,0,i,-1,15,7,
O=C(Nc1ccc(N2CCOCC2)cc1)NC1CCCCC1,-6,-30,1,3,i,1,-19,10,
COc1ccccc1COC(=O)c1ccc(S(=O)(=O)N2CCOCC2)cc1,x,-13,-1,1,x,-5,x,x,
COc1cc(/C=C2/C(=N)N3C(=NC2=O)SN=C3S(=O)(=O)C(C)C)ccc1OC(=O)c1ccco1,-3,-11,-25,2,i,-7,4,9,
COc1ccc(CN(C(=O)c2snc(C(N)=O)c2N)C(CC(C)C)C(=O)NC2CCCCC2)cc1 (configuration not stated),3,8,-10,-9,i,17,10,3,
OCC[C@H]1C[C@H](O)[C@@H](O)[C@@]2(CCc3ccccc3CO2)O1,x,0,7,4,x,-12,-5,x,
Cc1cc(Cl)ccc1OCC(=O)NNC(=O)c1ccco1,0,-4,1,1,x,8,-16,-4,
CCCN(C(=O)c1cccc(-n2cccc2)c1)c1c(N)n(Cc2ccccc2)c(=O)[nH]c1=O,x,-16,0,2,i,4,-13,x,
COCCn1nnnc1C(c1ccccc1)N1CCN(c2ccccc2)CC1 (configuration not stated),-10,7,0,1,i,-4,-48,-4,
Cc1nn(CC(=O)NCCCN2CCCC2)c(=O)c2nn(-c3ccccc3)c(C)c12,4,11,-1,1,i,-10,-9,6,
Cc1ccc(N=Cc2cc(Cl)cc(Cl)c2O)nc1,8,x,-6,-1,i,5,-5,-10,
CC(C)(/C=N/NC(=O)CSCc1ccc(Cl)cc1)CCC#N,-1,x,-1,1,i,-18,5,-2,

# In the list so far, three contain fluorine:
SMILES,eIF4H FP inh,UUG fidelity,MT1-MMP act inh,MT1-MMP act inh RFP,Rce1 inh,CSC inhib,HIV Env fusion,PABP polyA inh,others
CC(=O)c1ccc(NC(=O)CN(C)CC(=O)Nc2cccc(F)c2)cc1,-9,x,1,0,i,-20,19,-6,
COc1cc(-c2nnc(Cn3cc(C(F)(F)F)ccc3=O)o2)cc(OC)c1OC,-5,-13,3,-8,i,x,-12,6,
O=C(Nc1ccc2c(c1)CCC2)c1cc(S(=O)(=O)Nc2ccc(F)cc2)c(Cl)cc1Cl,2,-23,-2,-20,i,109*,x,-1,

# Later entries
SMILES,eIF4H FP inh,UUG fidelity,MT1-MMP act inh,MT1-MMP act inh RFP,Rce1 inh,CSC inhib,HIV Env fusion,PABP polyA inh,others
CC(C)(C)c1nn2cnnc2n(/N=C/c2cccc3ccccc23)c1=O,-7,x,-5,-3,i,-10,-3,-2,
COc1ccc(C(=O)Nc2ccc3oc(-c4cccc(Cl)c4)cc(=O)c3c2O)cc1,2,-12,0,-11,i,32,u,6,
Cc1c(CCOC(=O)CC23CC4CC(CC(C4)C2)C3)sc[n+]1CC(=O)c1ccc(Br)cc1,4,3,-5,-4,i,118*,61*,12,
CCNC(=S)N1CCN(CC)CC1,-6,x,0,3,i,-6,-23,18,
COc1ccccc1C(CNC(=O)c1cccc(S(=O)(=O)Nc2ccc(C)cc2)c1)N1CCCC1 (configuration not stated),x,-19,-3,-4,i,8,-21,x,
Cn1c(=O)n(C)c2cc(C(=O)Nc3ccc4c(c3)OCO4)ccc21,-7,-10,6,8,i,-10,x,10,
Nc1ccc(C#Cc2ccccc2)cc1,1,-3,-7,-5,i,-3,-50,-4,
N=c1sccn1CC(=O)N1CCc2ccccc21,3,-18,-1,7,i,-1,-15,-10,
Cc1ccc(C(=O)N/N=C/c2cn(Cc3ccccc3)c3ccccc23)cn1,-8,x,0,-17,i,5,20,-2,
CC(=O)Nc1nc(N(C)C)nc(N(C)C)n1,0,14,4,2,i,-8,14,-6,
Fc1ccc(C2CC(c3cccs3)=NN2C(=S)Nc2ccccc2)cc1 (configuration not stated),-1,x,-1,-7,i,10,5,0,
COc1cc(C(=S)N2CCOCC2)cc(Br)c1OS(=O)(=O)c1ccccc1,6,-15,6,-4,i,46,5,2,
COC(=O)N(C)C[C@@H]1OCc2ccccc2-c2c(n(C)c3ccccc23)C(=O)N([C@H](C)CO)C[C@@H]1C,x,13,-2,3,x,x,66*!,x,
Clc1ccc(OCc2nn3c(C4CCCCC4)nnc3s2)c(Cl)c1,-13,-12,4,3,i,3,19,2,
COc1cc(CC(=O)Nc2ncc(C)s2)cc(OC)c1OC,-4,-15,-12,-1,i,x,5,-3,
CCOC(=O)CSCC(=O)N1N=C(c2cccs2)CC1c1ccc(F)cc1 (configuration not stated),8,x,0,-1,i,-7,12,18,
O=C(c1ccccn1)c1ncc(C(F)(F)F)cc1Cl,2,-12,3,7,i,-3,-7,1,
Fc1ccc(N2CCN(C(c3cccs3)c3nnnn3CCc3ccccc3)CC2)cc1 (configuration not stated),2,9,-25,-24,i,-13,-299,0,
O=S1(=O)C[C@@H](N2CCCC2)[C@H](COCc2ccccc2)N1,x,-10,-1,3,x,x,-65,x,
O=C1CSC2=NCN(c3ccccc3)CN12,-4,-19,3,-1,i,16,-121,-5,
COc1ccc(CCNCc2cc3ccc(C)cc3[nH]c2=O)cc1OC,1,-6,0,-1,i,-20,7,-6,
CC1Cc2ccccc2N1C(=O)CO/N=C/c1ccc(OC(F)F)cc1 (configuration not stated),-3,x,3,5,i,0,1,-2,
CC(=O)c1c(C)[nH]c(C(=O)COc2ccc3c(C)cc(=O)oc3c2)c1C,x,-16,1,-4,x,x,17,x,
COC(=O)c1cccc(/C=N/NC(N)=S)c1O,3,x,0,-3,i,-1,-244,-5,
O=C(NCCCN1CCN(c2cccc(Cl)c2)CC1)C1(S(=O)(=O)c2ccc(Cl)cc2)CC1,-6,-8,6,-5,x,1,51,4,
Cc1oc2ccc(O)cc2c1C(=O)c1ccc(Cl)cc1,-8,-18,-5,-4,i,x,13,-1,
CC1(C)CC(NC(=O)C23CCC(C)(C(=O)C2)C3(C)C)CC(C)(C)N1 (configuration not stated),-6,-22,-2,1,x,-12,-6,-6,
Cc1ccc(C(=O)C(C)OC(=O)CCN=C2NS(=O)(=O)c3ccccc32)cc1 (configuration not stated),x,x,-1,-7,i,-3,-22,x,
CCC(C)C1Nc2ccc(C(=O)NCc3ccc4c(c3)OCO4)cc2NC1=O (configuration not stated),-3,14,0,-3,i,4,3,5,

# Screening data deposited in PubChem BioAssay by several laboratories.
